VDR inhibitor = blocks the human vitamin D receptor | P11473 | VDR-SRC2-3 peptide fluorescence polarization, 2 h | Potency, µM, for the others: max response, negative = inhibition, actives largely listed as inhibitors | 400,000 compounds, 0.93% hits | AID 504847; active means well fitted inhibition curve with a large enough effect; inconclusive means small, poorly fitted or top-dose-only effect, or another doubt; inactive means no such curve, though single readings can be large or run the other way; further: series mostly up to about 120 µM
Target sequence (P11473 whole entry, looked up): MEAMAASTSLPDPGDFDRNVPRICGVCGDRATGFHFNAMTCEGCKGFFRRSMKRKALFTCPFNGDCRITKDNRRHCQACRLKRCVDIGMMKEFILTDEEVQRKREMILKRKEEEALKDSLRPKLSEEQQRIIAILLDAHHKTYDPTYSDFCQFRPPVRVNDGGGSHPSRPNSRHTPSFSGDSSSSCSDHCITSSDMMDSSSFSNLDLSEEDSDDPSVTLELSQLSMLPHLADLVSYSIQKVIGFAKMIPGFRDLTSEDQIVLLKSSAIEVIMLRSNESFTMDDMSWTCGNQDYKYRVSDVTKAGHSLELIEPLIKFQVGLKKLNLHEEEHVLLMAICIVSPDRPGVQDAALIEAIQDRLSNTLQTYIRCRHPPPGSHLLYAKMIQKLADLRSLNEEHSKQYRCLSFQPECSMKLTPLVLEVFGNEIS
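Signal is fluorescence polarization, reporting how far test compounds block the interaction of VDR with the SRC2-3 coregulator peptide after a 2 h room-temperature incubation.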
* marks the source's active call; other numbers are inactive results; u = inconclusive. On the % scale 0 is the no-effect control and ±100 the full control effect; potency means the concentration at half of the fitted maximal effect.

VDR inhibitor | SMILES
5.0% | O=C(COC(=O)c1ccccc1NC(=O)c1ccco1)NCC1CCCCC1
9.1% | CC1(CCc2ccccc2)NC(=O)N(CC(=O)Nc2c(F)cccc2F)C1=O (stereo unspecified)
-17.1% | COC(=O)c1cc(C(=O)NCC2CCCCC2)cc([N+](=O)[O-])c1
-5.4% | Cc1ccc(C)c(NC(=S)NNC(=O)c2csc(C(C)C)c2)c1
-2.8% | COc1ccc(CCNS(=O)(=O)c2cn(C)nc2C)cc1OC
10.5% | CCNc1nc(OC)nc(Oc2ccc(=O)n(-c3ccccc3)n2)n1
-21.9% | CCCCSc1nnc2n(-c3ccc(OC)cc3)c(=O)c3c4c(sc3n12)COC(C(C)C)C4 (stereo unspecified)
0.6% | Cc1nc2c(-c3ccccc3)c(C)nn2c(C)c1CCC(=O)NCc1ccccc1Cl
-26.8% | O=C(/C=C1\SC(=O)NC1=O)Nc1ccc(F)cc1
-7.0% | Cn1c(SCC(=O)Nc2cccnc2Cl)nc2ccccc21
-3.6% | COc1ccccc1CNC(=O)c1ccc(-c2nc(CS(=O)c3ccccc3)c(C)o2)cc1 (stereo unspecified)
2.6% | Cc1c(Cl)cccc1NC(=O)C(C)n1c(=O)cc(C)c2c(C)nn(-c3ccccc3)c21 (stereo unspecified)
-11.7% | Cc1ccc(-c2nn(Cc3ccccc3)cc2/C=C/C(=O)O)cc1C
-5.2% | O=C(Nc1nnc(-c2ccncc2)o1)c1ccc(Br)s1
-7.4% | COCCNC(=S)N(CCc1c(C)[nH]c2ccc(OC)cc12)Cc1cccnc1
-19.1% | CC(C)CC(=O)NC(=S)Nc1ccc(S(=O)(=O)N2CCCC2)cc1
7.5% | Cc1nn(-c2ccc(N3CCCC3)nn2)c(C)c1CCC(=O)NCc1ccc(OC(C)C)cc1
6.2% | COC(=O)c1cc(-c2ccc(F)cc2)n(-c2ccccc2)n1
8.0% | Cc1nc2cnc(N3CCNCC3)nc2n(-c2ccccc2)c1=O
0.3% | O=C(CS(=O)(=O)c1ccccc1)Nc1nnc(Cc2ccccc2)s1

The last four entries of the section above are carried over, then new ones follow:
VDR inhibitor | SMILES
7.5% | Cc1nn(-c2ccc(N3CCCC3)nn2)c(C)c1CCC(=O)NCc1ccc(OC(C)C)cc1
6.2% | COC(=O)c1cc(-c2ccc(F)cc2)n(-c2ccccc2)n1
8.0% | Cc1nc2cnc(N3CCNCC3)nc2n(-c2ccccc2)c1=O
0.3% | O=C(CS(=O)(=O)c1ccccc1)Nc1nnc(Cc2ccccc2)s1
1.4% | CNC(=O)C1=C(C)Nc2nc3ccccc3n2C1c1ccc(F)cc1 (stereo unspecified)
9.4% | COc1cc(C2C3C(=O)N(c4ccccc4)C(=O)C3ON2c2ccccc2)cc(OC)c1OC (stereo unspecified)
1.0% | CC(=O)Nc1c(C#N)c(C(C)(C)C)cn1C
-11.0% | CC(=O)Nc1ccc(S(=O)(=O)NC2(C(F)(F)F)C(=O)NC(C)=C2C#N)cc1 (stereo unspecified)
2.9% | Cc1cc(COC(=O)C2N3C(=O)[C@@H](NC(=O)COc4ccccc4)[C@H]3SC2(C)C)on1 (stereo partly specified)
-11.4% | O=c1[nH]c(/C=C/c2cccc3ccccc23)nc2ccccc12
0.6% | CCNc1ccc(S(=O)(=O)N(C)C)cc1NCC(=O)Nc1ccccc1Br
15.6% | CC(=O)c1cccc(NC(=O)CSc2nc3c(=O)n(C)c(=O)n(C)c3n2C)c1
-15.6% | CCC(C)(C(=O)NC1CCCCC1)N(CC1CCCO1)C(=O)c1ccccn1 (stereo unspecified)
12.2% | COc1ccc(OC)c(NC(=O)C(CC(=O)O)NCc2ccco2)c1 (stereo unspecified)
-3.8% | O=C(CCc1nnc(C2CCCCC2)o1)NCc1cccc(-n2cccn2)c1
-1.3% | COCCNC(=O)C1(C(F)(F)F)C/C(=C\Cc2ccccc2)CCCO1 (stereo unspecified)
-7.8% | CCOc1ccc(Oc2nc(NCC(C)C)nc(OC)n2)nn1
-9.7% | CC(NC(=O)c1ccccc1)c1nc2ccccc2n1Cc1ccc(C#N)cc1 (stereo unspecified)
14.1% | CN(C)c1ccc(/C=N/NC(=O)CN2CCCCC2)cc1Br
0.7% | CCOC(=O)c1sc2nc(NC(=O)C(C)(C)C)sc2c1C
10.9% | CCN1CNC(=S)N(Cc2ccccc2)C1
-3.2% | Cc1cc(NC(=O)c2noc3c2CCCCC3)nn1Cc1ccc(Cl)cc1
0.7% | CCSc1nc2cc(C(=O)OC)ccc2c(=O)n1CC
8.9% | Cc1cc(NC(=O)Cn2cc([N+](=O)[O-])cn2)no1
-3.0% | COc1ccccc1Oc1ccc2c(c1)C(=O)N(c1ccc(O)cc1)C2=O
-11.8% | O=C(Nc1ccccc1)Nc1ccccc1Br
0.6% | CC(C)c1nc(C#N)c(NCCCn2ccnc2)o1
-7.0% | CCn1cnc2c(NCCc3cccnc3)nc(C#N)nc21
3.9% | COC(=O)CC1C(=O)NCCN1C(=S)Nc1ccc(F)cc1 (stereo unspecified)
-11.5% | CCOC(=O)C1=NN(C(=O)Nc2ccc(OC)cc2)C2C(=O)N(c3cccc(C(F)(F)F)c3)C(=O)C12 (stereo unspecified)
-10.9% | Cc1cc(Br)ccc1NC(=O)Cn1cc(S(=O)(=O)N2CCN(c3ccccc3F)CC2)c2ccccc2c1=O
-0.7% | Cc1ccc(C(=O)OCC(=O)c2c[nH]c3ccccc23)cc1NC(=O)c1ccco1
-6.7% | COc1cccc(C(=O)Nc2ccc(-n3nncc3-c3ccccc3)cc2)c1OC
-8.0% | Nc1ccc2oc(=O)c3ccccc3c2c1
-8.0% | COc1ccc(-c2csc3ncnc(N4CCN(c5cccc(OC)c5)CC4)c23)cc1
3.3% | CCCC(=O)N1CCN(c2ccc(NC(=O)c3ccc([N+](=O)[O-])o3)cc2)CC1
-4.1% | Cc1cc([N+](=O)[O-])cc2ncccc12
0.0% | CCOc1ccc(-n2c(SCC(=O)Nc3cc(C)on3)nnc2-c2c[nH]c3ccccc23)cc1
3.9% | Cc1nnc(SCC(=O)Nc2ccc(Cl)cn2)n1Cc1ccccc1
-15.8% | CC(/C=C/c1ccco1)=N\NC(=O)CNc1ccc2ccccc2c1
5.4% | Cc1cccc(N(CC(=O)N2CCCC2)S(=O)(=O)c2ccccc2)c1C
3.2% | CCn1c(SCC(=O)c2ccc(CNC(C)=O)o2)nnc1-c1cccs1
-9.3% | CCc1cc2c(C)ccc(C)c2nc1SCC(=O)Nc1cc(C)on1
9.8% | CC(C)c1ccc(S(=O)(=O)N2CCN(C(=O)c3cccc(S(=O)(=O)N4CCOCC4)c3)CC2)cc1

3 entries out of the list, sorted by length of the SMILES, lowest first:
VDR inhibitor | SMILES
14.1% | CN(C)c1ccc(/C=N/NC(=O)CN2CCCCC2)cc1Br
8.0% | Cc1nc2cnc(N3CCNCC3)nc2n(-c2ccccc2)c1=O
5.0% | O=C(COC(=O)c1ccccc1NC(=O)c1ccco1)NCC1CCCCC1

Other results
VDR inhibitor | SMILES
9.8% | CCOc1cc(S(=O)(=O)N(CC)CC)ccc1Cl
18.8% | CCN(c1ccccc1)S(=O)(=O)c1ccc(Cl)c(NC(=O)COC(=O)c2ccc[nH]c2=O)c1
2.2% | CCc1cccc(NC(=O)C2CCCN2S(=O)(=O)c2ccc3nc(-c4ccccc4)[nH]c3c2)c1 (stereo unspecified)
u | COc1ccccc1-c1cc(C(F)(F)F)nc(S(=O)(=O)CCCC(=O)Nc2cc(OC)c(OC)c(OC)c2)n1
-8.7% | Cc1cc(C)nc(SC2c3cccc4cccc(c34)C2NS(=O)(=O)c2ccccc2)n1 (stereo unspecified)
-1.4% | COc1ccccc1CNc1ncnc2ccc(-c3cccc(C#N)c3)cc12
0.6% | COCCNC(=O)Cn1nc(C(F)(F)F)cc1C
-7.4% | O=C(CNS(=O)(=O)c1ccc(Br)cc1Cl)OCC(=O)c1ccc[nH]1
3.7% | O=C(OCC(=O)N1CCCCCC1)c1n[nH]c(=O)c2ccccc12
13.6% | CCc1cc(=O)[nH]c(SCc2nc(-c3ccccc3C)no2)n1
-6.3% | CN1CCN(c2ccc(C(CC(N)=O)NC(=O)Cc3ccc(Br)cc3)cc2[N+](=O)[O-])CC1 (stereo unspecified)
13.7% | CCOc1ccc2nc(NC(=O)Cn3cnc4c3c(=O)n(C)c(=O)n4C)sc2c1
1.5% | CC1CCCC(NC(=O)COC(=O)c2cccnc2Cl)C1C (stereo unspecified)
6.0% | C=CCc1cc(/C=N/NC(=O)CSc2nnc(CCCc3ccc(OC)cc3)o2)cc(OC)c1O
2.5% | CCCC(=O)NC(Nc1ccc(S(=O)(=O)Nc2cc(C)on2)cc1)(C(F)(F)F)C(F)(F)F
-0.7% | COCC(=O)Nc1sc2c(c1C(=O)OC)C(C(=O)OC)CC2 (stereo unspecified)
1.3% | Cc1ccc(NC(=O)Cc2ccc(NC(=O)N3CCCCc4ccccc43)cc2)cc1Cl
-4.3% | Cc1ccccc1NS(=O)(=O)c1ccc(OCCNS(C)(=O)=O)cc1
12.8% | COc1cccc(N2CCN(Cc3nnnn3C3CCCCC3)CC2)c1
-9.5% | CS(=O)c1ccccc1-c1nc(-c2cccc(Cl)c2)no1 (stereo unspecified)
4.6% | CC/C(=N\NC(=O)c1cc(C2CC2)[nH]n1)c1ccccc1
50.1µM* | CCOC(=O)C(=CNNc1ccccc1)C(=O)OCC
-6.8% | COc1cc(/C=N/NC(=O)c2cc(C)n(-c3ccc(F)cc3)c2C)cc(OC)c1O
2.3% | Cc1cccc(NC(=O)C(=O)NCC(c2cccnc2)N2CCN(Cc3ccccc3)CC2)c1 (stereo unspecified)
1.4% | COCCNC(=O)CCCn1c(=O)c2cc(OC)c(OC)cc2n(CC(=O)Nc2ccc(C)c(F)c2)c1=O
-10.1% | COc1cc(NC(=O)c2cc(CC(C)C)on2)c(OC)cc1Cl
6.5% | CC(=O)Nc1ccc(S(=O)(=O)NCCSCc2c(Cl)cccc2Cl)cc1
8.2% | CCCn1c(SCC(=O)c2c(N)n(C3CC3)c(=O)[nH]c2=O)nc2cc(S(N)(=O)=O)ccc21
2.3% | CC(C)OCCCNC(=O)CCCC(=O)Nc1ccc(OCCc2ccccc2)cc1
3.4% | CC1CCCN(C(=O)CN2C(=O)C(C)Oc3ccccc32)C1 (stereo unspecified)
6.8% | COc1ccc(NC(=S)N2CCC(c3nc4ccccc4[nH]3)CC2)c(OC)c1
7.2% | CC(=O)NCCNC(=O)CCCc1nnc2n(CCC(C)C)c(=O)c3sccc3n12
-24.5% | CC(C)CCN(C)c1ccc(/C=N/n2cnnc2)cc1
3.8% | CCC(C)N(C(=O)COC(=O)CNC(=O)c1sc2ccccc2c1Cl)C1CCS(=O)(=O)C1 (stereo unspecified)
6.6% | CCC(CC)C(=O)c1c[nH]c(C(=O)NC2CCCCCC2)c1
-15.9% | Cc1ccc(S(=O)(=O)c2c(C)c(C)c(C)[nH]c2=O)cc1
4.6% | COc1cc2c(cc1OC)C(c1cccc([N+](=O)[O-])c1)N(C(=O)c1ccc(F)cc1)CC2 (stereo unspecified)
-5.8% | O=C(c1ccc([N+](=O)[O-])o1)N1CCCCCC1
-2.2% | Cc1onc(-c2ccccc2)c1C(=O)NCC(O)c1ccccc1 (stereo unspecified)
4.4% | CC(C)c1ccc(NS(=O)(=O)c2ccc3nc(-c4ccccc4)[nH]c3c2)cc1

Given with each value named: 4 of the compounds above
> CCc1cc(=O)[nH]c(SCc2nc(-c3ccccc3C)no2)n1
  VDR inhibitor: 13.6%

> COC(=O)c1cc(-c2ccc(F)cc2)n(-c2ccccc2)n1
  VDR inhibitor: 6.2%

> COCCNC(=O)CCCn1c(=O)c2cc(OC)c(OC)cc2n(CC(=O)Nc2ccc(C)c(F)c2)c1=O
  VDR inhibitor: 1.4%

> CC(NC(=O)c1ccccc1)c1nc2ccccc2n1Cc1ccc(C#N)cc1 (stereo unspecified)
  VDR inhibitor: -9.7%

More entries follow:
VDR inhibitor | SMILES
-4.5% | COc1ccccc1CNC(=O)C(=O)NCC(c1cccnc1)N1CCN(c2ccccc2)CC1 (stereo unspecified)
-10.4% | CC(=O)Nc1ccc(S(=O)(=O)N2CCC(N3CCCC3)CC2)cc1
-12.8% | Nc1ccc(C(=O)Nc2nccs2)cc1
28.2µM* | CN1C(=O)/C(=C\C(=O)c2cccs2)c2ccccc21
-11.8% | Oc1ccc(C[C@@H]2CNCCN2CCc2cc(C(F)(F)F)cc(C(F)(F)F)c2)cc1
7.8% | CC(=O)Nc1ccc(S(=O)(=O)NC(C)C(=O)OCCOc2ccc(F)cc2)cc1 (stereo unspecified)
-4.1% | CC(C)CN(CC(C)C)S(=O)(=O)N1CCC(C(=O)N2CCc3ccccc3C2)CC1
11.1% | CCNC(=O)NC(=O)C(C)Sc1ncc(C(F)(F)F)cc1Cl (stereo unspecified)
0.8% | Cc1cc2cc(CNC(=O)C(C)Oc3ccccc3)ccc2n1C (stereo unspecified)
9.3% | Cc1ccc(C(=O)Cc2ccccc2)c(O)c1
-14.7% | Cc1ccc(NC(=O)CCNS(=O)(=O)c2ccc3[nH]c(=O)oc3c2)cc1C
-3.7% | O=C(NNC(=O)c1cc2ccccc2oc1=O)c1ccccc1[N+](=O)[O-]
u | Cc1oc(/N=C/c2cccc3ccccc23)c(C#N)c1C
-5.2% | O=C(NCc1ccc2c(c1)OCO2)C(=O)NCC1OCCCN1S(=O)(=O)c1ccc(F)cc1 (stereo unspecified)
-7.1% | CNC(=O)OCN1C(=O)C2CC=CCC2C1=O (stereo unspecified)
-0.3% | C=C1CCN([C@@H](Cc2ccccc2)C(=O)NC2CCN(Cc3ccccc3)CC2)S(=O)(=O)c2ccccc21
-10.3% | O=C(CNC(=O)c1ccc(Br)cc1)N/N=C/c1cccnc1
6.3% | Cc1cc(C(=O)COC(=O)Cn2c(C(F)(F)F)nc3ccccc32)c(C)n1Cc1ccco1
-0.9% | CN(Cc1ccccc1)C(=O)c1ccccc1-c1ccccc1
5.1% | Cc1ccc(OCC(O)CNC2CCCC2)cc1C (stereo unspecified)

An excerpt; rates above refer to the full screens.
